From PubChem BioAssay
AID504770 – growth inhibitors of E. coli YBA685 in a screen for V. cholerae RctB (chromosome II replication) inhibitors | 130,000 compounds, 0.27% hits | AID 504770 | z-score (test concentration not listed) | E. coli YBA685 rctB-dependent plasmid, OD600 growth, 3 h; active compounds read low;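 active = z-score under -2 on both plates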;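 also: wells of about 30 µL received 100 nL stock; score is relative to mean and SD of the test wells; the first replicate is given; strong numbers were not always called active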
CapD inh – CapD enzyme inhibition; 140,000 compounds, 0.23% hits; z-score (no concentration beside the values); purified CapD enzyme, fluorescence intensity read-out; active compounds read low; some hits fall short of the stated cut;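 active = z-score under -4 in either of two replicates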;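 also: stock transfer was 100 nL into about 40 µL; score is relative to mean and spread of the plate; one replicate is shown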
Numbers without * were called inactive; x = no result given; & = joins results of further samples.

SMILES | AID504770 | CapD inh
COc1ccc(C)cc1S(=O)(=O)NC1CCN(Cc2cc(OC)c3c(c2)OCO3)C1 (configuration not stated) | x | 0.14
Cc1cc(C)nc(Nc2ccc(S(N)(=O)=O)cc2)n1 | 0.65 | x
CCOC(=O)c1cnc(-c2ccccc2)nc1Sc1ccc(Cl)cc1 | x | 0.53
COc1ccc(-c2nnn(-c3cc(Cl)cc(Cl)c3)c2N)cc1 | x | -0.12
O=c1c(O)c(-c2cc(O)c(O)c(O)c2)oc2cc(O)cc(O)c12 | x | -0.9
O=C1CCCc2cc(S(=O)(=O)NCc3cccnc3)ccc2N1 | -0.15 | 0.81
COC(=O)c1sccc1NC(=S)N1CC(C)CC(C)C1 (configuration not stated) | -0.25 | 0.02
O=C(Cn1c(=O)oc2ccccc21)Nc1cccnc1 | -1.2 | -1.5
CCn1c(NCCCO)nc2ccccc21 | -1.1 | -0.08
CC(C(=O)Nc1ccccc1)C(=O)Nc1ccccc1 | -1.5 | -0.065
Clc1ccc(-c2ccnc3ncnn23)cc1Cl | 0.35 | 3.7
CCN(CC)S(=O)(=O)c1ccc(-c2nnc(SCC(=O)Nc3nc4ccccc4s3)o2)cc1 | 0.25 | x
CCc1cccc(C)c1NC(=O)CC(C)(C)CC(=O)O | x | 0.38
CCOC(=O)C1CCCN(C(=O)c2cc3c(C)nc4ccccc4c3o2)C1 (configuration not stated) | 0.05 | -1.3
CC1=C(C(=O)N(CC2CC=CCC2)CC2CCCO2)C2(CCCCC2)OC1=O (configuration not stated) | 0 | -1.1
Cc1ccc(CNS(=O)(=O)c2cn(C)cn2)cc1 | 0.3 | x
CCC(=O)Nc1ccccc1Sc1ncc(C(F)(F)F)cc1Cl | x | -0.11
N#CC1(NC(=O)CSc2nc3scc(-c4cccs4)c3c(=O)[nH]2)CCCCC1 | -0.05 | x
CS(=O)(=O)NCc1ccccc1 | -0.25 | 0.14&0.02
COc1cc(C=C2C(=O)NC(=S)NC2=O)cc(Br)c1OCC(C)C | x | 0.28
Cc1cccc(NC(=O)Cn2cccc2)c1 | 0.65 | 0.06
O=C1CSc2ccccc2N1Cc1ccc(Cl)cc1 | -0.4 | -0.035
CSc1ncc(F)c(N(C)C)n1 | 0.3 | 0.38
Cc1cc(C)nc(N2CCC(C(=O)NCc3cccc(Cl)c3)CC2)n1 | x | 0.28
Cc1ccc(-n2cc(-c3ccccc3)c3c(NCc4ccco4)ncnc32)cc1Cl | x | -0.16
CCOC(=O)CSc1nc2c(c(=O)n1-c1ccc(F)cc1)SCC2 | x | -0.99
CC(C)CCNc1c2c(nc3nncn13)CCC2 | -0.1 | -0.7
O=C(CCCO)NCc1ccc2c(c1)OCO2 | -0.15 | 0.2
COc1ccc(C(=O)CSc2nc3c(cnn3-c3ccccc3)c(=O)[nH]2)cc1 | x | -0.28
Clc1ccc(-n2cccc2)cc1 | -0.8 | -0.01
COC(=O)CNC(=O)Cc1cccc2ccccc12 | -0.15 | x
CNS(=O)(=O)c1cccc(C(=O)OC2CCCCC2=O)c1 (configuration not stated) | 0.1 | x
CCOc1ccc(OCC)c(NC(=O)C2Cc3ccccc3CN2S(C)(=O)=O)c1 (configuration not stated) | -0.85 | -0.075
COc1ccc(-c2[nH]nc3c2C(c2cn[nH]c2-c2ccc(F)cc2)C(C#N)=C(N)O3)cc1 (configuration not stated) | x | -1.2
CC(C)N(C(=O)NC(=O)Nc1ccc(S(=O)(=O)N2CCCC2)cc1)S(C)(=O)=O | -0.1 | x
Cc1oc2ccccc2c1CCOC(=O)c1ccc(Cl)cc1 | 1.2 | -0.95
COc1ccc(-n2ncc3c(Nc4ccc(C)c(C)c4)ncnc32)cc1 | x | -0.15
CCOC(=O)C1CCN(S(=O)(=O)c2ccc3c(c2)C(C)(C)C(=O)N3C)CC1 | -0.2 | 0.11
CS(=O)(=O)c1ccc2ccn(OC(=O)c3ccccc3)c2c1 | x | -0.16
CC(=O)N[C@H]1[C@H](OCCN2C(=O)c3ccccc3C2=O)O[C@H](CO)[C@@H](O)[C@@H]1O | 0.45 | -0.75

The last three entries of the part above open the next one:
SMILES | AID504770 | CapD inh
CCOC(=O)C1CCN(S(=O)(=O)c2ccc3c(c2)C(C)(C)C(=O)N3C)CC1 | -0.2 | 0.11
CS(=O)(=O)c1ccc2ccn(OC(=O)c3ccccc3)c2c1 | x | -0.16
CC(=O)N[C@H]1[C@H](OCCN2C(=O)c3ccccc3C2=O)O[C@H](CO)[C@@H](O)[C@@H]1O | 0.45 | -0.75
CCCNC(=O)Cn1ncn2c(cc3sc(CC)cc32)c1=O | 0.55 | -0.32
CN(C)c1ccc(C2NCCS2)cc1 (configuration not stated) | -0.3 | x
O=C(COc1ccc(-c2nnco2)cc1)N(CCc1ccccc1)Cc1ccccc1 | 0.25 | x
CCn1nc(C(=O)n2cc(C(=O)c3ccccc3O)cn2)c2ccccc2c1=O | -0.25 | x
S=c1[nH]nc(Cc2sc(-c3ccccc3)nc2-c2ccccc2)o1 | x | -1
CCc1ccccc1N=CC12c3ccccc3C(c3ccccc31)C1C(=O)N(c3ccc(OC)cc3)C(=O)C12 (configuration not stated) | x | -0.41
CC(=O)c1sc(-c2ccc(Cl)cc2)nc1C | x | 0.45
Clc1ccc(-c2cnc3n2CCCCC3)cc1 | 0.15 | x
Oc1c(N=Nc2ccc(F)cc2)c2ccccc2n1CN1CCOCC1 | x | -1
O=C(CSc1nnc(-c2cccs2)n1C1CC1)NC(=O)C1COc2ccccc2O1 (configuration not stated) | -0.3 | x
COC(=O)c1sc(N)c(C(=O)OC)c1COC(=O)c1ccc2c(c1)OCCO2 | 0.3 | x
CCOC(=O)C1=C(C)OC(N)=C(C#N)C1c1ccc(C(C)(C)C)s1 (configuration not stated) | x | 27
CC1(C)C2CCC1(C)C(N)C2 (configuration not stated) | x | -0.29
COc1ccc(/C=N/N=C/c2c(O)[nH]c(=O)[nH]c2=O)cc1 | 0.4 | x
COc1ccc(COCC(O)CS(=O)(=O)c2ccc(Cl)cc2)cc1 (configuration not stated) | 0.75 | 0.53
O=C(c1ccccc1Cl)N1CCC(c2nc3c(nnn3Cc3ccco3)c(=O)[nH]2)CC1 | -1.8 | -0.93
CCOC(=O)c1[nH]c2ccccc2c1NC(=O)c1cccc(OC)c1OC | -1.1 | -0.085
CCCCn1c(CNC(=O)COC)nc2ccccc21 | 0.25 | -0.37
O=c1oc2ccccc2cc1-c1csc(-c2ccccc2)n1 | 3.7 | 53
Cc1cc(Br)ccc1SCC(=O)OCC(=O)c1ccco1 | 1.4 | x
COc1ccc(CCNC(=O)c2cnc3scc(C)n3c2=O)cc1OC | 0.75 | -0.21
O=C(c1cc(=O)c2ccccc2o1)N1CCCc2ccccc21 | -0.5 | x
O=C(c1cc(F)cc2c1OCOC2)N1CCC(O)(c2ccc(Cl)cc2)CC1 | -0.05 | -0.3
O=C(CSc1nnc(-c2ccccc2)o1)NC1CCCC1 | -0.35 | x
O=S(=O)(NCC1CCCO1)c1ccc(-n2cccn2)cc1 (configuration not stated) | -0.15 | 0.41
O=C(Nc1ccccc1)Nc1ccc(C(=O)N2CCCCC2)cc1 | -0.75 | -0.14
O=C(CN1C(=O)/C(=C\c2ccccc2)Oc2ccccc21)NCCc1ccccc1 | 0.15 | 1.6
CC1(C)Cc2ccccc2CN1C(=O)c1ccccc1 | -0.2 | 7
C=CCn1c(SCC(=O)c2ccc(N(C)S(C)(=O)=O)cc2)nnc1C1CCCCC1 | -0.25 | x
COC(=O)c1ccc(C2C(C#N)=C(N)OC(C)=C2C(C)=O)cc1 (configuration not stated) | x | -0.57
COc1ccc(CCNC(=O)c2ccccc2)cc1 | -0.65 | 0.14
CC(=O)N1CCN(c2ccc3ccccc3n2)CC1 | -1 | x
CC(=O)NCc1ccc2c(c1)cc(C)n2C | 0.25 | -0.17
COc1ccc(NC(=O)c2cc3nc(-c4ccc(OC)c(OC)c4)cc(C(F)(F)F)n3n2)c(OC)c1 | x | -0.38
O=C(Nc1ccccc1C(=O)NN=Cc1cccc(Oc2ccccc2)c1)c1cccs1 | x | 0.6
O=C(CCn1[nH]c(=O)ccc1=O)Nc1ccc2c(c1)CCC2 | 0.1 | x
CCc1ccc(-c2nc(CSCC(=O)N3CCOCC3)c(C)o2)cc1 | -0.8 | 0.27
CCC(Sc1nc2ncccc2c(=O)n1Cc1ccccc1)C(=O)Nc1ccc(F)cc1 (configuration not stated) | 0 | -3.4
COc1ccc(/C=C2/SC(=S)N(CCC(=O)Nc3c(C)n(C)n(-c4ccccc4)c3=O)C2=O)cc1 | x | 0.9
NC(=O)c1ccsc1NC(=O)C1CC1 | 0.05 | 0.01
O=C(c1ccccc1)N1CCN(c2cc(N3CCCCC3)c(F)cc2[N+](=O)[O-])CC1 | x | -0.59
O=C1CC(N2CCCc3ccccc32)C(=O)N1c1ccccc1 (configuration not stated) | 1.7 | 0.015
CCN(CC)c1nc(Nc2ccc(OC)cc2)nc(Nc2ccc(OC)cc2)n1 | 0.4 | x
Cc1ccc(NC(=O)c2cnc3ccccn3c2=O)cc1 | 2.1 | 0.045
CCOc1ccc2c(c1)-c1c(ssc1=S)C(C)(C)N2C(=O)CSc1nc(C)cc(=O)[nH]1 | x | -0.46
FC(F)(F)c1ccnn1-c1nc(-c2cc3ccccc3o2)cs1 | 0.8 | x
C=CCN1C(C(=O)c2ccccc2)=C(NC(=O)c2ccc(OC)cc2)c2ccccc2S1(=O)=O | 0.65 | -0.64
Cc1ccc(-n2c(/C=C/c3cc4c(cc3[N+](=O)[O-])OCO4)nc3ccccc3c2=O)cc1 | x | -0.015
C=C1N(CCc2ccccc2)C(=O)OC12CCCCC2 | x | -0.3
O=S(=O)(c1ccc(Cl)cc1)N1CCSc2cc(Cl)ccc21 | x | 0.41

Additional entries follow.
SMILES | AID504770 | CapD inh
CC1CN(Cc2c(O)ccc3c(=O)c(-c4ccccc4)coc23)CC(C)O1 (configuration not stated) | -0.4 | -0.075
Nc1ccc(Oc2cc(C(F)(F)F)ccc2Cl)cc1F | x | 0.55
COc1ccc(N2C(=O)C3C(c4ccccc4C)OC4(C(=O)c5ccccc5C4=O)C3C2=O)cc1OC (configuration not stated) | x | 0.61
CCC(C)Nc1ncnc2sccc12 (configuration not stated) | -0.6 | -0.3
CCCc1cc(=O)n2nc(N3CCC(C(=O)N4CCCC4)CC3)sc2n1 | -0.3 | -0.055
CC(=O)NCCn1ccc2ccccc21 | 2.4 | -0.89
Cc1ccc(S(=O)(=O)n2c([N+](=O)[O-])cnc2C)cc1C | x | -0.31
CCCNC(=O)Cn1c2ccccc2c2nc3n(c(=O)c21)CCS3 | -0.7 | x
CC1=C(C(=O)N2CCCCC2)C2(CCC(C)CC2)OC1=O (configuration not stated) | -0.5 | 0.065
Cn1c(=O)c2cc(C(=O)N3CCCC3)sc2c2ccccc21 | -0.95 | 36

Molecules listed so far that contain a nitro group on carbon, in the order listed:
SMILES | AID504770 | CapD inh
O=C(c1ccccc1)N1CCN(c2cc(N3CCCCC3)c(F)cc2[N+](=O)[O-])CC1 | x | -0.59
Cc1ccc(-n2c(/C=C/c3cc4c(cc3[N+](=O)[O-])OCO4)nc3ccccc3c2=O)cc1 | x | -0.015
Cc1ccc(S(=O)(=O)n2c([N+](=O)[O-])cnc2C)cc1C | x | -0.31

Remaining list, next part
SMILES | AID504770 | CapD inh
c1coc(C2CC(c3cccs3)Nc3ncnn32)c1 (configuration not stated) | x | -0.3
O=C(NC(=O)c1sc2ccccc2c1Cl)c1ccccc1O | -0.4 | -0.6
CC1(C)C2CC=C(/C=N/NC(=O)COc3ccc(C#N)cc3)C1C2 (configuration not stated) | 0.65 | x
O=C(CCc1nc2ccccc2c(=O)[nH]1)Nc1cccc(O)c1 | -3.5 | x
Nc1c(S(=O)(=O)Cc2ccc(Cl)cc2)sc2nc3c(cc12)CCCC3 | 1.2 | -0.56
Cc1nc(-c2cccc(N)c2)cs1 | -1.1 | 2
O=C(CSc1nnc(-c2ccccc2)n1-c1ccccc1)NC1=NCCS1 | -0.05 | x
Cn1nc2c(c1N)CCC2 | 1.8 | x
COC(=O)C(CC(C)C)NC(=O)c1ccccc1C (configuration not stated) | -0.05 | x
CCc1ccc2nc(NC(=O)Cn3ccc(=O)[nH]c3=O)sc2c1 | -0.25 | x
O=C1C(=O)N(CCc2c[nH]c3ccccc23)C(c2ccccn2)/C1=C(/O)c1ccccc1 (configuration not stated) | -0.65 | -3.5
COCCCn1c(=O)c2ccccc2n(Cc2ccccc2)c1=O | -1.1 | x
Cc1ccc(C2NC(c3ccc(C)cc3)C(C)C(=NO)C2C)cc1 (configuration not stated) | -0.1 | -0.43
CCSc1nc2n(n1)C(c1cccs1)C1=C(CCCC1=O)N2 (configuration not stated) | -0.35 | -0.24
CC(Sc1ccccn1)C(=O)Nc1ccccc1 (configuration not stated) | 0.35 | x
CC(=O)Nc1ccc2c(c1)OCCOCCOCCO2 | x | -0.015
CCc1cc2c(ncn3cnnc23)s1 | 0.05 | -0.78
Clc1cccc(OCCN2CCN(c3ccccc3)CC2)c1 | -0.85 | 0.21
CC(NC1CCN(C)CC1)c1ccccc1 (configuration not stated) | -0.45 | x
O=C(NCC1CCCCC1)c1ccc2c(c1)OCCO2 | 2.8 | x

Full records, looked up by structure. Values in the order: AID504770, CapD inh
Shown for CC1=C(C(=O)N(CC2CC=CCC2)CC2CCCO2)C2(CCCCC2)OC1=O (configuration not stated) : 0, -1.1
Shown for Clc1ccc(-c2cnc3n2CCCCC3)cc1 : 0.15, x
Shown for CCN(CC)S(=O)(=O)c1ccc(-c2nnc(SCC(=O)Nc3nc4ccccc4s3)o2)cc1 : 0.25, x

Continuation.
SMILES | AID504770 | CapD inh
CC(C)(C)N1CCN(C(C)(C)C)C1=O | 0.15 | 3.1
CC(=O)OC1OCCOC1NC(=S)Nc1cccc(C(F)(F)F)c1 (configuration not stated) | 0.2 | x
O=S(=O)(c1ccc2c(c1)Cc1ccccc1-2)N1CCOCC1 | 2 | x
COC(=O)C1=C(O)/C(=C\c2ccc(CNS(=O)(=O)c3ccc(Br)cc3)o2)N=C1C | 0.3 | -1.2
Cc1cc(C)nc(SCC(=O)OCC(=O)c2ccc3c(c2)OCO3)n1 | 0.25 | x
